# Source: PubChem (Center for Chemical Genomics, University of Michigan)
# CDC25B-CDK2 inh = human CDC25B-CDK2/CyclinA binding inhibition | HTRF CDC25B-CDK2/CyclinA binding, anti-His/anti-Flag; active compounds read high | hit rate 0.72% among 94,000 | z-score (no concentration beside the values) | P30305+P24941 | AID 1259370;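 note: score is relative to mean and SD of negative controls; strong numbers were not always called active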
# HIV TAR-Tat = HIV-1 TAR-Tat binding disruption | z-score (no concentration beside the values) | HIV-1 TAR RNA, Tat peptide displacement FRET; active compounds read high | hit rate 0.6% among 100,000;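 note: score is relative to mean and SD of negative controls; some compounds called inactive have numbers as strong as hits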
# Starred values were filed as active, the others as inactive; . = no result given.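 Rule for the calls: active = z-score from 3 up in half or more of its runs; inactive = the rest.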
SMILES,CDC25B-CDK2 inh,HIV TAR-Tat
N/C(Cc1ccc([N+](=O)[O-])cc1)=N\OC(=O)c1cc(Cl)cc(Cl)c1,-2.9,.
Cc1cn(C)c(CC(=O)NCCC2=CCCCC2)c1C(=O)O,-0.47,1.2
CC(C)COC(=O)C(C)Oc1ccc2c(=O)c(-c3ccccc3)coc2c1 (stereo unspecified),-0.08,-0.18
O=C(Nc1ccccc1)N1CCCN(c2ccc(C(F)(F)F)cn2)CC1,-1.8,.
CCc1c(C)nc2nc(Cc3cccc(F)c3)nn2c1NCc1ccc2c(c1)OCO2,.,1.1
CCSc1ncc2c(=O)n(CC(=O)N(C)C3CCCCC3)cnc2n1,.,0.76
CNC(=O)c1cc2c(=O)n3cccc(C)c3nc2n1C,.,-0.63
Cc1nn(-c2cc(N3CCCC3)ncn2)c(C)c1CCC(=O)O,-1.7,2
COc1ccccc1N(CCCN1C(=O)c2cccc3cccc(c23)C1=O)C(=O)C(C)(C)C,-1.4,.
CC1(C)CC(=O)C(C2C3=C(CC(C)(C)CC3=O)Oc3ccccc32)=C(O)C1 (stereo unspecified),0.46,.
N=C(N)N=N/C=C/C=C/c1ccccc1,-1.6,.
Cc1cc(-c2ccc(S(=O)(=O)Nc3ccc(Br)c(C)c3)s2)n[nH]1,.,1.2
OCCCNc1nc(-c2ccccc2)c2cc(Br)ccc2n1,-1.3,0.93
COc1cc2c(cc1OC)CC(C)(C)N(Cc1ccc(Br)cc1)C2,-0.9,.
CN(C)c1cc(NC(=O)Nc2ccccc2)c2ccccc2n1,-1.8,.
COc1ccc(CN2CCc3nc(Nc4ccc5c(c4)OCO5)ncc3C2)cc1OC,.,1.4
Cc1cccc(C2CCCN2C(=O)c2cnn3cc(Br)cnc23)c1 (stereo unspecified),-0.84,0.85
CCCN1C(=O)C(Cc2nc3ccccc3c(=O)n2Cc2ccccc2)c2ccccc21 (stereo unspecified),1.3,1.9
CCCNC(=O)N1CCC2(CC1)c1cccn1-c1ccc(C)cc1N2CC,.,0.54
CCOC(=O)N1CCN(C(=O)CCS(=O)(=O)c2cc3c(cc2Cl)NC(=O)CO3)CC1,.,2

# Overlap with the part before: 6 entries, then new ones.
SMILES,CDC25B-CDK2 inh,HIV TAR-Tat
CN(C)c1cc(NC(=O)Nc2ccccc2)c2ccccc2n1,-1.8,.
COc1ccc(CN2CCc3nc(Nc4ccc5c(c4)OCO5)ncc3C2)cc1OC,.,1.4
Cc1cccc(C2CCCN2C(=O)c2cnn3cc(Br)cnc23)c1 (stereo unspecified),-0.84,0.85
CCCN1C(=O)C(Cc2nc3ccccc3c(=O)n2Cc2ccccc2)c2ccccc21 (stereo unspecified),1.3,1.9
CCCNC(=O)N1CCC2(CC1)c1cccn1-c1ccc(C)cc1N2CC,.,0.54
CCOC(=O)N1CCN(C(=O)CCS(=O)(=O)c2cc3c(cc2Cl)NC(=O)CO3)CC1,.,2
CC(C)CC(NS(=O)(=O)c1ccc2c(c1)CCCC(=O)N2)C(=O)N1CCC(C)CC1 (stereo unspecified),.,1.5
Cc1cc(=O)c2cc(Cl)ccc2s1,-0.71,.
c1ccc(-c2nc3c([nH]2)CCc2nonc2-3)cc1,-0.86,.
NC(=O)C1(N2CCCCC2)CCN(C2CC(=O)N(c3ccc(Br)cc3)C2=O)CC1 (stereo unspecified),-0.35,-0.4
CN1CCN(c2nc(N)c([N+](=O)[O-])c(Nc3ccc(F)cc3)n2)CC1,.,2
O=S(=O)(NCc1cn2ccsc2n1)c1ccc(F)cc1,1.1,.
CCSc1nc2ccccc2c(=O)n1C1CCOC(C)(C)C1 (stereo unspecified),-1.7,.
CCCCNC(=O)N1CCN(c2ncc(Br)cn2)CC1,-1.4,.
CN(CCNC(=O)c1cc2c(s1)-c1ccc(Cl)cc1S(=O)(=O)C2)C1CCCCC1,-0.67,1.9
Fc1ccc(OCOc2ccc(F)cc2)cc1,0.25,.
CCOC(=O)N1CCC(Nc2c(N(C)C3CCCCC3)c(=O)c2=O)CC1,0.49,0.61
O=C1Nc2cc(C(=O)N3CCc4ccccc43)ccc2N2CCCCC12 (stereo unspecified),.,-0.23
CC(C)NC(=O)CN1C=NS(=O)(=O)c2ccccc21,.,2.1
COc1ccc(C2/C(=C(\O)c3ccc(Cl)cc3)C(=O)C(=O)N2c2nnc(C)s2)cc1 (stereo unspecified),-1.6,.
CC(=O)Nc1ccc(S(=O)(=O)Nc2cc(Cl)cc(Cl)c2)cc1,0.39,.
Cc1cc(N2CCCCC2)nc(N2CCN(C(=O)Nc3ccccc3)CC2)n1,.,0.1
CCOc1ccc(S(=O)(=O)[C@H]2CS(=O)(=O)C[C@@H]2N2CCCC2)cc1,-1.7,1.2
Cc1cc(C)c(S(=O)(=O)Nc2ncccn2)c(C)c1,-2.4,.
C=CCC(C#Cc1ccccc1)N1CCCC1 (stereo unspecified),-1.8,-1.2
COc1ccc(NC(=O)Nc2nnc(CC(=O)Nc3ccc(C)cc3)s2)cc1,5.5*,.

# Given with values under each structure: part of the list above
# Below each compound: CDC25B-CDK2 inh | HIV TAR-Tat
- Cc1cc(=O)c2cc(Cl)ccc2s1
 : -0.71 | .
- CCCCNC(=O)N1CCN(c2ncc(Br)cn2)CC1
 : -1.4 | .
- c1ccc(-c2nc3c([nH]2)CCc2nonc2-3)cc1
 : -0.86 | .
- CN(CCNC(=O)c1cc2c(s1)-c1ccc(Cl)cc1S(=O)(=O)C2)C1CCCCC1
 : -0.67 | 1.9

# (list continues)
SMILES,CDC25B-CDK2 inh,HIV TAR-Tat
COc1ccc2nc(NC(=O)c3cccs3)sc2c1,.,-0.01
O=C(NCc1ccc2c(c1)OCO2)NC12CC3CC(CC(C3)C1)C2,-0.24,.
Cc1cc(C)n2nc(NCc3ccc(C(C)C)cc3)nc2n1,-1.5,2
CCc1ccc(S(=O)(=O)c2c[nH]c3cc(OC)c(OC)cc3c2=O)cc1,5.3,2.9
O=C(O)c1cc(=O)nc2sccn12,-1,1.2
COc1cccc(Cl)c1-c1nc(NC(C)=O)nc(NC(C)=O)n1,-0.9,.
Cc1ccc(CNC(=O)c2noc3ncnc(N4CCOCC4)c23)o1,.,-0.64
CC1=C(C#N)C(c2cccc(F)c2)C2=C(CCCC2=O)N1 (stereo unspecified),0.07,1.1
Cc1cc2n(n1)CCC(=O)N2C(C)C(=O)NCCCOC(C)C (stereo unspecified),.,0.38
CCN1CCN(CCCNC(=O)C2CCCN(c3ncnc4onc(C)c34)C2)CC1 (stereo unspecified),.,2.2
COC(=O)c1sc(NC(=O)CSc2ncnc3sc(C)c(C)c23)c(C(=O)OC)c1C,0.59,.
CC1CN(C(=O)C2CCCO2)c2ccccc2NC1=O (stereo unspecified),-0.33,-0.78
Cc1ccc(C)c(CN2CCCN(C(=O)Cn3ncc4c3-c3cc(C)ccc3OC4)C2)c1,0.6,-0.43
O=C(Cn1ncn2c(cc3ccccc32)c1=O)Nc1cccc(F)c1,-1.2,1.4
O=C(C1CCCO1)N(c1cccc(Cl)c1)C1C=CS(=O)(=O)C1 (stereo unspecified),-1.4,1.3
O=C(Nc1ccccc1F)c1cc2c(s1)-c1ccc(Cl)cc1S(=O)(=O)C2,0.04,0.61
O=C(COc1ccc(Br)cc1)NCc1ccco1,1,-0.44
CCOc1ccc(N2C(=O)c3cccnc3C2Nc2cc(OC)ccc2OC)cc1 (stereo unspecified),-1.4,0.68
COc1cccc(-n2c3c(c(SC(C)C)nc2=O)CCC3)c1,-2.1,-1.3
Cc1ccc(-n2ncc3c2ncn2nc(-c4ccccc4)nc32)cc1C,0.26,2.5
CCn1c(=O)c2cc(C(=O)NCC3COc4ccccc4O3)sc2c2ccccc21 (stereo unspecified),-0.92,.
Cc1[nH]nc(-n2cnnc2)c1NC(=O)c1ccc2c(c1)OCO2,-1.5,-0.17
O=S(=O)(c1ccc(Br)cc1)N1CCCC(c2nc(-c3ccccc3Cl)no2)C1 (stereo unspecified),.,1.9
Cc1[nH]nc2c1C(C(=O)c1ccc3c(c1)OCCO3)CC(=O)N2 (stereo unspecified),.,0.19
CCOc1ccc(OCC)c(NS(=O)(=O)c2ccc(CN3C(=O)c4cccnc4C3=O)s2)c1,.,-1
O=C(O)c1nccnc1C(=O)O,-3.9,.
O=C(Cn1cc2c(n1)CCCCCC2)NC1CCCC1,-1.4,0.38
O=c1ccc(-c2ccc(S(=O)(=O)NCCSCc3ccco3)s2)n[nH]1,.,1.4
Cc1ccc(Nc2ncnc3[nH]ncc23)cc1,-0.71,.
Cc1cc(F)ccc1S(=O)(=O)NCCc1sc(-c2ccc(Cl)cc2)nc1C,.,-1.3
COC(=O)c1cnc(NCCCN2CCCC2)c2ccccc12,.,-0.01
Cc1cc(F)ccc1NS(=O)(=O)c1ccc2[nH]c3c(c2c1)CCCC3,.,-1.4
O=C(Oc1ccc(N(Cc2cccs2)C2=NS(=O)(=O)c3ccccc32)cc1)c1ccco1,1.3,.
CC1CC(=O)c2cnc(N3CCOCC3)nc2C1 (stereo unspecified),-1.4,1.8
CS(=O)(=O)N(Cc1cc2ccccc2[nH]c1=O)c1ccccc1,-2,0.45
Cc1ccc(S(=O)(=O)N/N=C/c2ccc(O)cc2O)cc1,-1.6,.
CCOCCCN(Cc1ccco1)S(=O)(=O)c1csc(C(N)=O)c1,.,0.93
O=C1c2ccccc2C(=O)N1Cc1ccc2c(c1)CN1C(=O)c3ccccc3C1=N2,-0.5,.
CCCCNC(=O)CCCN1C(=O)CCn2nc(-c3cccn3C)cc21,.,0.33
CCOC(=O)C1C(=O)NC(N2CCOCC2)=NC1c1ccco1 (stereo unspecified),-0.71,-2.5
CCOC(=O)c1c(C)cc(C)[nH]c1=O,0.2,.
O=C(COc1ccc2c(=O)c(Oc3ccccc3Br)coc2c1)OC1CCCCC1,0.28,2.5
COc1ccc(S(=O)(=O)n2nc(-c3cc(OC)c(OC)c(OC)c3)cc2N)cc1OC,-1.7,.
CC(C)c1ccc(S(=O)(=O)N(C(=O)c2ccncc2)c2ccc3oc(=O)sc3c2)cc1,-1.1,-0.02
CC(CCC(=O)O)[C@H]1CCC2C3CC[C@@H]4C[C@H](O)CC[C@]4(C)C3CC[C@@]21C (stereo partly specified),.,1.9
COc1cc(O)ccc1C1CC(=O)Nc2nc(SCc3ccc(C)cc3)[nH]c(=O)c21 (stereo unspecified),-0.48,-4
CCn1nc(C)c(CNS(=O)(=O)c2ccc(C)c(C)c2)c1C,.,0.99
COc1ccc(-c2noc(-c3nnn(-c4ccc(F)c(Cl)c4)c3N)n2)cc1,.,0.83
Cc1ccc(N2CCCS2(=O)=O)cc1NS(=O)(=O)c1ccc(F)cc1C,.,0.2
CN1CCc2nc3sc(C(=O)NC4CCCCC4)c(N)c3cc2C1,1.1,0.83
CSc1nnc(-c2ccc(S(=O)(=O)Nc3ccccc3Cl)s2)n1C,1.1,.
COc1ccc(N)cc1CN1CCn2c(nc3ccccc32)C1,2.3,-0.29
Cc1cccc(-c2noc(CN(C3CCCCC3)S(=O)(=O)c3ccccc3)n2)c1,-2.4,-0.27
CC(=O)Oc1ccc(OC(C)=O)c(C2=C3C(=O)N(CCc4ccccc4)CC(=O)N3CCC2)c1,0.1,.
O=C(NC1COc2ccccc2C1)N1CCN(C(=O)c2ccco2)CC1 (stereo unspecified),.,1.1
Cc1cn2c(=O)cc(CSc3n[nH]c(N)n3)nc2s1,.,0.89
CCSc1nnc(NC(=O)c2cc(=O)c3cc(Cl)ccc3o2)s1,-0.47,2
CCn1c(=O)cc(OCC(=O)N2CCc3ccccc32)c2ccccc21,0.18,3
CCc1nn2c(=O)cc(CSCC(=O)Nc3ccccc3F)nc2s1,.,-0.48
CCN1CCC2(CC1)OC(=O)C(C)=C2C(=O)NCCCN1CCCC1=O,.,1.5

# Entries of single compounds, quoted from the list.
# Entry for `CC1CN(C(=O)C2CCCO2)c2ccccc2NC1=O` (stereo unspecified) = CDC25B-CDK2 inh = -0.33; HIV TAR-Tat = -0.78
# Entry for `COC(=O)c1cnc(NCCCN2CCCC2)c2ccccc12` = CDC25B-CDK2 inh = .; HIV TAR-Tat = -0.01

# Additional entries follow.
SMILES,CDC25B-CDK2 inh,HIV TAR-Tat
NC(=O)C1CCN([C@H]2CS(=O)(=O)C[C@@H]2S(=O)(=O)c2ccc(Cl)cc2)CC1,0.72,0.76
COc1cccc2c1Oc1ncccc1N(c1ccc(C(=O)N3CCOCC3)s1)C2,.,0.09
CCOc1ccc(OCCSc2nnnn2-c2ccccc2)cc1,-1.2,0.04
Cn1cc(S(=O)(=O)N2CCCC2)cc1C(=O)Nc1ccc(F)cc1,.,2.8
C=CCN1C(=O)/C(=C/c2ccc(OCCOc3ccc(OC)cc3)c(OC)c2)SC1=S,-5.6,.
Clc1ccc(-c2nc3ccccc3[nH]2)cc1,-0.87,2.8
O=c1ccc(-c2ccc(S(=O)(=O)N3CCN(c4ccccn4)CC3)s2)n[nH]1,.,0.88
O=C(NN1CCOCC1)c1csc(Cc2c(Cl)cccc2Cl)n1,-1.4,.
O=C(NC1(C(F)(F)F)Oc2ccc(Cl)cc2O1)N1CCCCCC1 (stereo unspecified),-0.25,.
CCS(=O)(=O)N1CCC2(CC1)OC(=O)C(C)=C2C(=O)NCc1ccccn1,.,-0.26
CC(=O)N(c1ccc2oc(=O)sc2c1)S(=O)(=O)c1cccc2cccnc12,-1.1,.
CCOC(=O)C1CCN(c2c(N3CC(C)CC(C)C3)c(=O)c2=O)CC1 (stereo unspecified),-1.9,.
OC(CN1C2=NCCCN2c2ccccc21)c1ccc(Cl)cc1 (stereo unspecified),-0.06,1.2
Cn1ccnc1SCC(=O)Nc1ccc(S(N)(=O)=O)cc1,-0.33,.
Cc1cc(N2CCCc3ccccc32)ncn1,-0.32,1.4
O=C(O)C1CCCN(S(=O)(=O)Cc2ccccc2)C1 (stereo unspecified),-2.1,0.03
Oc1ccc(/C=C/c2nc(-c3ccccc3O)n(-c3ccccc3)n2)c(O)c1,-0.52,.
COc1cc(C2C(C#N)=C(N)OC3=C2C(=O)CCC3)cc(OC)c1OC (stereo unspecified),-1.4,.
COc1ccc(NS(=O)(=O)c2ccc(NC(=O)N3CCCC3)cc2)cc1,.,0.58
